From PubChem
StopGo RLuc: lowers the Renilla signal of an FMDV 2A StopGo reporter. HEK cells with a luciferase reporter of 2A StopGo recoding. 120,000 tested, 0.32% active. Potency, µM (series often up to 57.5 µM), for the others: at the top dose signal change, negative = less light; active means well fitted falling curve with a large enough effect; inconclusive means small, poorly fitted or top-dose-only effect; inactive means no such curve, though single readings can be large or run the other way; further: nearly all actives have a fitted effect of over 55% in size; overnight with compound
2A firefly: FMDV 2A StopGo reporter, firefly signal | Potency, µM (top dose mostly 57.5 µM), inactives show top-dose signal change, negative = less light | HEK cells with a luciferase reporter of 2A StopGo recoding | AID 1745856 | 120,000 tested, 0.23% active; active = well fitted falling curve with a large enough effect; inconclusive = small, poorly fitted or top-dose-only effect; inactive = no such curve, though single readings can be large or run the other way; further: nearly all actives have a fitted effect of over 60% in size; overnight with compound
* hit, by the source's call; ? = inconclusive; [ ] = remark or other dose. On the % scale 0 is the no-effect control and ±100 the full control effect; potency means the concentration at half of the fitted maximal effect. This is a random part of the collection (roughly 0.53% active in at least one column).

SMILES	StopGo RLuc	2A firefly
COc1ccccc1C1=NS(=O)(=O)N(C)C(C(=O)Nc2ccc(C(C)=O)cc2)=C1	28%	5%
COc1ccc(CCNC(=O)c2c(Nc3ccccc3C)sc(C(=O)c3ccccc3)c2N)cc1OC	2%	0%
Cc1c(S(=O)(=O)c2ccccc2)c(NC(=O)C(C)C)n(C(C)C)c1C	0%	-5%
CCOC(=O)c1cc(-c2ccccc2)n(CCCC(=O)Nc2ccc(C)cc2Cl)c1C	10%	0%
Cc1c(-c2cccc(F)c2)c(=O)oc2ccccc12	0%	27%
COc1ccc(CNc2oc(-c3ccccc3)nc2C#N)cc1OC	?	?
Fc1ccccc1Nc1ncnc2c1oc1ccccc12	21%	205%[activator]
CCN(CC)C(=O)CN1C(=O)COc2ccc(S(=O)(=O)N3CCOCC3)cc21	-10%	-17%
CC(C)C(=O)Nc1ccc2c(C(C(=O)O)N3CCN(C=O)CC3)c[nH]c2c1 (stereo not given)	-14%	-13%
N#C/C(=C/c1ccccc1Cl)c1nc2ccccc2c(=O)[nH]1	85%[activator]	65%[activator]
Cc1cc2nc(-c3cccc(NC(=O)c4cccc5ccccc45)c3)oc2cc1C	4%	0%
CCOC(=O)C1=C(CS(=O)(=O)c2ccc(C(C)(C)C)cc2)NC(=O)NC1c1cccc(OC)c1 (stereo not given)	-9%	-27%
Cc1ccc(COC(=O)c2[nH]c3c(c2C)C(=O)CC(c2ccc(Cl)cc2)C3)cc1 (stereo not given)	3%	-3%
Cc1cc(=O)oc2cc(OCC(=O)Nc3ccc4c(c3)OCCO4)ccc12	6%	0%
O=C(CN1CCN(S(=O)(=O)Cc2ccccc2)CC1)Nc1ccc(F)c(F)c1	1%	2%
Cc1ccccc1Cn1c(COc2ccc(Cl)cc2)nc2ccccc21	9%	-1%
Cc1cccc(C(=O)n2nc(-c3cccnc3)nc2NCc2ccc(F)cc2)c1	-12%	-18%
CCN(CC)C(=O)c1sc2c(c1C)c(=O)n(-c1ccccc1)c(=O)n2Cc1cc(=O)n2ccccc2n1	-5%	-20%
CCOc1ccc(NC(=O)Cn2c(=O)c(CNc3ccc(CC)cc3)cc3cc4c(cc32)OCO4)cc1	-5%	-9%
Cc1cc(NC(=O)COc2ccc3c(C(C)C)cc(=O)oc3c2)no1	-4%	-1%
COc1cccc(CNc2ncc(-c3ccc(Br)cc3)n2C)c1	2%	-5%
CCCC(=O)NCc1nc2cccnc2n1Cc1ccc(F)cc1	-11%	-12%
COc1ccc(OC)c2[nH]c(C(=O)NCCC(=O)Nc3ccc4c(c3)OCCO4)cc12	23%	62%[activator]
CCOc1ccc(CNC(=O)c2cccc(NC(=O)N3CCSc4ncccc43)c2)cc1	5%	0%
O=C(Nc1cccc2cccnc12)c1ccc(Cl)cc1	0%	0%
Fc1ccc(NCc2c(F)cccc2Cl)cc1Cl	2%	20%
CCOCCCn1c(=N)c(C(=O)NC2CCCC2)cc2c(=O)n3cc(C)ccc3nc21	-6%	-9%
CC(=O)c1ccc(NC(=O)Cc2ccc3c(c2)CCC3)cc1	36%[activator]	135%[activator]
CCC1CN(C(=O)NCc2ccccc2)c2cc(Cl)ccc2O1 (stereo not given)	40%[activator]	0%
O=C(NNC(=S)NCc1cccs1)c1c[nH]c2ccccc12	84%[activator]	127%[activator]

Of the compounds above, these contain an NH in an aromatic ring.
SMILES	StopGo RLuc	2A firefly
CC(C)C(=O)Nc1ccc2c(C(C(=O)O)N3CCN(C=O)CC3)c[nH]c2c1 (stereo not given)	-14%	-13%
N#C/C(=C/c1ccccc1Cl)c1nc2ccccc2c(=O)[nH]1	85%[activator]	65%[activator]
Cc1ccc(COC(=O)c2[nH]c3c(c2C)C(=O)CC(c2ccc(Cl)cc2)C3)cc1 (stereo not given)	3%	-3%
COc1ccc(OC)c2[nH]c(C(=O)NCCC(=O)Nc3ccc4c(c3)OCCO4)cc12	23%	62%[activator]
O=C(NNC(=S)NCc1cccs1)c1c[nH]c2ccccc12	84%[activator]	127%[activator]

New compounds follow:
SMILES	StopGo RLuc	2A firefly
COc1ccc(-c2csc3c2NC(=O)CC3c2ccc(OCC(N)=O)c(OC)c2)cc1 (stereo not given)	2.8µM*	4µM*
CCN(CC)C(=O)CC(C#N)(CC(=O)N(CC)CC)c1nc2ccccc2s1	89%[activator]	21%
CCn1c(Oc2ccc(F)cc2F)nc2c1c(=O)n(C)c(=O)n2C	-7%	-1%
Cc1nnc(SCc2c(C(=O)NC(C)c3ccccn3)oc3ccccc23)s1 (stereo not given)	-1%	5%
O=C(Nc1ccccc1)c1c[nH]c2ccc(F)cc2c1=O	0%	153%[activator]
NNc1cc(Cl)ccc1[N+](=O)[O-]	-16%	3%
COc1ccc(Cl)cc1NC(=O)c1c(NCc2sccc2C)sc2c1CCCC2	-6%	0%
CCCCC1CCC(C(=O)Oc2ccc(OCC)cc2)CC1 (stereo not given)	-4%	7%
Cc1nc(N2CCCC2)ncc1C(=O)N1CCN(c2ccc(Cl)cc2)CC1	0%	-5%
CCOc1ccc(NC(=O)CSc2nc3cc(C)[nH]c3c(=O)n2C)cc1	-9%	-2%
COc1ccc(NS(=O)(=O)c2ccc3nc(-c4ccccc4)[nH]c3c2)cc1	189%[activator]	-13%
COCCNC(=O)CCn1nc(-c2ccc(C)cc2)c2ccccc2c1=O	10%	7%
Oc1ccc(Br)cc1/C=N/c1nc(C23CC4CC(CC(C4)C2)C3)cs1	18%	34%[activator]
CCc1ccc(-n2nc(C)c3c(C(=O)NCCc4ccc(OC)c(OC)c4)cc(C)nc32)cc1	3%	-1%
CC1=C/C(=N\NC(=S)Nc2ccccc2C)CC1	2%[1.06 µM]	148%[activator]
O=C(NCCCN1CCCC1=O)c1cc2cc(F)ccc2[nH]1	7%	102%[activator]
O=c1c(-c2ccccc2)nnc2sc(-c3ccc(F)c(Cl)c3)nn12	-3%	44%[activator]
CC1CCN(S(=O)(=O)c2ccc(N3CCCCS3(=O)=O)cc2)CC1	30%	18%
COc1cccc(/C=C/c2ccc3cccc(O)c3n2)c1O	-22%	123%[activator]
CC(=O)N1CCN(C(=O)CSc2nnc(Nc3ccc(C)cc3C)s2)CC1	1%	9%
CC(C)N1CCCC(CNC(=O)CCc2ncc(-c3ccccc3)o2)C1 (stereo not given)	-13%	1%
N#Cc1ccc(/C=C2\CCOc3cc(Br)ccc3C2=O)cc1	44%[activator]	29%
O=c1[nH]c(=O)n(Cc2ccccc2)c2ncn(Cc3ccco3)c12	-3%	3%
O=C(COc1ncnc2ccccc12)Nc1cc(Cl)ccc1Cl	-9%	1%
Cc1nc(-c2ccc(CNC(=O)c3cnccn3)s2)cs1	4%	55%[activator]
COc1ccc(C)cc1NS(=O)(=O)c1ccc(-c2coc(C)n2)cc1	98%[activator]	?
Cc1ccc2c(CC(=O)Nc3c(C(=O)Nc4cccc(Cl)c4)oc4ccccc34)coc2c1C	-4%	11%
N=C(N)c1cc([N+](=O)[O-])cc([N+](=O)[O-])c1	46%[activator]	41%[activator]
CCOC(=O)C1CCN(C(=O)Cn2ncc3c([nH]c4ccc(C)cc43)c2=O)CC1	1%	-10%
O=C(COc1ccc(Cl)cc1)Nc1cc(-c2ccccc2)no1	-9%	16%
CN(CCCN1c2ccccc2CCc2ccccc21)CC(=O)c1ccc(Cl)cc1	-5%	-9%[11.5 µM]
Cc1nn(-c2ncnc3nc[nH]c23)c2c1C(c1c(F)cccc1F)CC(=O)N2 (stereo not given)	8%	33%[activator]
O=C(Cc1ccc(NC(=O)N2CCSc3ncccc32)cc1)NCCc1ccccc1	-15%	0%
C=C(C)CSC1=C(C#N)C(c2sccc2C)CC(=O)N1 (stereo not given)	9%	4%
CCOc1ccc(NC(=O)C(=O)c2cc(C)n(-c3cc(C)cc(C)c3)c2C)cc1	-11%	-17%
CC(C)c1ccc(S(=O)(=O)N2CCC(C(=O)Nc3nc4c(s3)CCC4)CC2)cc1	55%[activator]	-2%
CC(C)CC(=O)Nc1ccc(OCc2cc(=O)n3ccsc3n2)cc1	1%	8%
Fc1cc(Br)ccc1N=Cc1ccc2ncccc2c1	5%	10%
Fc1cccc(Nc2nc(NC3CCCC3)nc3c2cnn3-c2ccccc2)c1	-16%	13%
c1ccc(CNCC2CCNCC2)cc1	0%	1%
CCC(C)(C)NC(=O)CCNC(=O)c1ccccc1	6%	-2%
Cc1c(C(=O)Nc2nccs2)nnn1-c1cccc(C(F)(F)F)c1	2%	78%[activator]
COc1ccc(-c2coc3cc(OCC(=O)N4CCN(c5ccccn5)CC4)ccc3c2=O)cc1	-3%	18%
O=C(Cn1nc(Cc2ccncc2)c2ccccc2c1=O)Nc1cc(F)ccc1F	-2%	-5%
COc1ccc(C(=O)COC(=O)C2(c3ccccc3)CCCC2)cc1F	?	?
O=C(/C=C/c1cccc(Cl)c1)c1cc2ccccc2oc1=O	-12%	-5%
COc1ccc(C(=O)N/N=C(/C)c2ccc3c(c2)Nc2ccccc2S3)cc1OC	?	-19%
COc1ccc(CNC(=O)C2=C(C)C(=O)OC23CCCCC3)cc1OC	-9%	-12%
Cc1ccc(S(=O)(=O)Nc2nc3ccccc3nc2Nc2ccc3c(c2)OCO3)cc1C	86%[activator]	14%
COc1ccccc1-n1c(/C=C/c2ccccc2)nc2ccccc2c1=O	-9%	-16%
Later entries
SMILES	StopGo RLuc	2A firefly
Cc1ccc(NC(=O)C2CCCN(C(=O)c3cnn(-c4ccccc4)c3-n3cccc3)C2)cc1 (stereo not given)	-13%	13%
CCN(CC)C(CN)c1ccco1 (stereo not given)	-4%	9%
CCc1c(C(=O)Nc2cccc(NC(=O)COC)c2)cnn1-c1ccc(OC)nn1	35%[activator]	117%[activator]
COc1ccc(C)cc1NC(=O)CNC(=O)CNc1ccccc1Cl	-2%	-13%
CC(NC(=O)c1[nH]c2ccc(F)cc2c1Cl)c1cccc(F)c1 (stereo not given)	-18%	?
CC(C)(Oc1ccc(Cl)cc1)C(=O)N1CCN(c2nccs2)CC1	10%	-4%
O=S(=O)(c1ccc2c(c1)OCCO2)c1nc(-c2ccco2)oc1N1CCN(c2ccccc2)CC1	32%	-6%
CCc1ccc(S(=O)(=O)c2nnn3c2nc(Nc2ccc(NC(C)=O)cc2)c2sccc23)cc1	0%	-27%
O=C(CCn1ccc2ccccc21)N1CCN(S(=O)(=O)c2ccccc2)CC1	-15%	-11%
O=c1c2ccccc2cnn1CN1CCN(S(=O)(=O)c2ccc(Cl)c(Cl)c2)CC1	-8%	-5%

Of the compounds above, these contain two or more sulfur atoms:
SMILES	StopGo RLuc	2A firefly
O=C(NNC(=S)NCc1cccs1)c1c[nH]c2ccccc12	84%[activator]	127%[activator]
Cc1nnc(SCc2c(C(=O)NC(C)c3ccccn3)oc3ccccc23)s1 (stereo not given)	-1%	5%
COc1ccc(Cl)cc1NC(=O)c1c(NCc2sccc2C)sc2c1CCCC2	-6%	0%
CC1CCN(S(=O)(=O)c2ccc(N3CCCCS3(=O)=O)cc2)CC1	30%	18%
CC(=O)N1CCN(C(=O)CSc2nnc(Nc3ccc(C)cc3C)s2)CC1	1%	9%
Cc1nc(-c2ccc(CNC(=O)c3cnccn3)s2)cs1	4%	55%[activator]
C=C(C)CSC1=C(C#N)C(c2sccc2C)CC(=O)N1 (stereo not given)	9%	4%
CC(C)c1ccc(S(=O)(=O)N2CCC(C(=O)Nc3nc4c(s3)CCC4)CC2)cc1	55%[activator]	-2%
CCc1ccc(S(=O)(=O)c2nnn3c2nc(Nc2ccc(NC(C)=O)cc2)c2sccc23)cc1	0%	-27%

(listing goes on)
SMILES	StopGo RLuc	2A firefly
Cc1cc(F)ccc1NCc1ccccc1C#N	0%	0%
COCCn1c2c(c(=O)[nH]c1=O)C(c1ccccc1C)C1=C(N2)c2ccccc2C1=O (stereo not given)	220%[activator]	161%[activator]
Cc1ccccc1Nc1nc(-c2ccc(C)c([N+](=O)[O-])c2)cs1	-25%	113%[activator]
CCOc1ccc(-c2[nH]ncc2-c2ccc(OC)cc2)c(O)c1	8%	-19%
CCCN1CCN(CC2=C(C(=O)OCC)C(c3cccc(OC)c3OC)NC(=O)N2)CC1 (stereo not given)	-11%	-26%
CN(C)S(=O)(=O)c1ccc(-c2nc(C#N)c(N3CCCCCC3)o2)cc1	10%	6%
COc1cc(C(=O)NCc2nc3ccccc3n2CC(C)C)cc(OC)c1OC	6%	4%
CNC(=O)c1ccc(NC(=O)CSCc2csc(-c3ccc(C)cc3)n2)cc1	?	?
COc1cccc(-n2cnnc2SCC(=O)NC(C)c2cccc3ccccc23)c1 (stereo not given)	9%	13%
COc1ccc(CNC(=O)CC(c2ccc(OC)c(OC)c2)N2Cc3ccccc3C2=O)cc1 (stereo not given)	55%[activator]	0%

3 entries from above, ordered by number of heavy atoms, ascending:
SMILES	StopGo RLuc	2A firefly
CN(C)S(=O)(=O)c1ccc(-c2nc(C#N)c(N3CCCCCC3)o2)cc1	10%	6%
COc1cccc(-n2cnnc2SCC(=O)NC(C)c2cccc3ccccc23)c1 (stereo not given)	9%	13%
COc1ccc(CNC(=O)CC(c2ccc(OC)c(OC)c2)N2Cc3ccccc3C2=O)cc1 (stereo not given)	55%[activator]	0%

Continuation:
SMILES	StopGo RLuc	2A firefly
CCn1c(SCC(=O)Nc2ccc(C(C)C)cc2)nc2c(=O)[nH]cnc21	1%	15%
Cc1cc(C)c2c(=O)[nH]c(SCC(=O)Nc3ccc(Br)cc3)nc2n1	-18%	-11%
CC(C)Cn1c(SCC(=O)NC(C)c2ccccc2Cl)nc2ncccc2c1=O (stereo not given)	30%[activator]	5%
Cc1cc(C)cc(NC(=O)CSc2nc3c(c(=O)[nH]2)CN(Cc2ccc(F)cc2)CC3)c1	-7%	-9%
CCOC(=O)c1cnc2ccc(OCC)cc2c1Nc1cc(Cl)c(OC)cc1OC	-10%	-19%
O=C(Nc1ccc(N2CCN(c3ccc(F)cc3)CC2)c(C(=O)O)c1)c1ccccc1F	0%	22%
